NPYLR7 ag: mosquito NPYLR7 agonism. 270,000 tested, 0.15% active. HEK293T NPYLR7/Galpha15, GCaMP6s calcium fluorescence. activation, % at 10 µM; in the data active means activation above about 40%;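 further: 0% = vehicle and 100% = reference agonist at the receptor; some compounds past the cut are filed as inactive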
NPYLR7 ag max-min: further read-out of NPYLR7 ag, marked with its call; activation, %; measured here: Max-Min RFU normalised activation; some inactives read as strong as hits;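 span of the calcium signal over five minutes; 0% = vehicle and 100% = native peptide agonist; compound fluorescence can raise it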
Active calls of the source: *.

nr	molecule	NPYLR7 ag max-min	NPYLR7 ag
1	CCS(=O)(=O)c1ccc(-c2cccc(NS(=O)(=O)c3ccc(C)cc3C)c2)nn1	-1	-3
2	CNCc1ccccc1	-14	-6
3	Cc1ccc2c(c1)c(N=NC(=O)COc1ccccc1C)c(O)n2C	-7	-2
4	Cc1cccc(COC(CN2CCN(C(=O)c3snnc3C)CC2)c2ccc(Cl)cc2)c1 (stereo not drawn)	-15	-14
5	Cc1cc(O)cc(=O)n1CC(=O)C(C#N)c1nc(C(C)C)cs1 (stereo not drawn)	8	9
6	O=C1c2nc(Nc3ccncc3)ccc2CN1C1(C(=O)NCC2CCOCC2)CC1	2	6
7	CCN(CC)C(=O)C(C)n1c(=O)cc(C)c2cccc(C)c21 (stereo not drawn)	-9	-9
8	CN(Cc1nncn1C)C(=O)[C@H]1C[C@@H](C(=O)O)N(C)[C@H]1c1cccc(Cl)c1	4	18
9	CC1CN(CC(=O)NCC2CCOC2)c2ccccc2N(Cc2ccccc2)C1 (stereo not drawn)	2	3
10	CCCc1nc(C)sc1-c1nnc(N)o1	-7	1
11	CC(C)OCCCNC(=O)c1ccc(-c2ccc(C3CCCCC3)cc2)s1	35	30
12	C=CCn1c(=NC(=O)c2cccc(N3C(=O)CCC3=O)c2)sc2cccc(OC)c21	-1	-1
13	CCc1nc(C2CN(Cc3nnsc3Cl)CCO2)n[nH]1 (stereo not drawn)	3	6
14	COc1ccc(C(=O)N2CCN(C(C(=O)N3CCc4ccccc4C3)C3CCCC3)CC2)cc1 (stereo not drawn)	-1	-4
15	CC(C)(C)NC(=O)CCN1CCOC(c2ccc(Cl)cc2)C1 (stereo not drawn)	-1	4
16	Cc1ccccc1-n1cnnc1SCC(=O)N1CCN(c2cccc(C(F)(F)F)c2)CC1	17	10
17	Oc1cccc(-c2[nH]cnc2-c2ccccc2)c1Cl	5	7
18	OCCn1c(-c2ccccc2)cn2c3ccccc3nc12	-19	-12
19	CCc1ccc(C(=O)NC2CS(=O)(=O)CC2N2CCCC2)o1 (stereo not drawn)	3	3
20	O=C(Nc1ccccc1O)C1CCN(C(=O)COc2ccc(Cl)cc2Cl)CC1	2	1
21	Cc1[nH]c2ccccc2c1C(c1ccncc1)c1c(C)[nH]c2ccccc12	-1	3
22	Cc1cc(C(=O)N(CCN(C)C)c2nc3c(F)cc(F)cc3s2)nn1C	0	2
23	Cn1c(SCc2nc3ccsc3c(=O)[nH]2)nnc1C1CC1	7	1
24	COC(=O)C(CN)c1cccc(C)c1 (stereo not drawn)	4	6
25	O=C(OCC(=O)C12CC3CC(CC(C3)C1)C2)c1ncc(Cl)c(Cl)c1Cl	4	2

Given with two lines to a compound: part of the list above.
Under each structure: NPYLR7 ag max-min, NPYLR7 ag
22) Cc1cc(C(=O)N(CCN(C)C)c2nc3c(F)cc(F)cc3s2)nn1C
    0, 2
23) Cn1c(SCc2nc3ccsc3c(=O)[nH]2)nnc1C1CC1
    7, 1
24) COC(=O)C(CN)c1cccc(C)c1 (stereo not drawn)
    4, 6
25) O=C(OCC(=O)C12CC3CC(CC(C3)C1)C2)c1ncc(Cl)c(Cl)c1Cl
    4, 2

Additional records follow.
nr	molecule	NPYLR7 ag max-min	NPYLR7 ag
26	CCOc1ccc(-n2c(CNC(=O)c3ccco3)nnc2SCC(=O)Nc2cccc(C)c2)cc1	1	5
27	CCOc1ccc(-c2cnc(C3CCCNC3)[nH]2)cc1OCC (stereo not drawn)	11	14
28	Cn1nnc2c(SCc3cccc4ccccc34)ncnc21	8	1
29	CC(C)n1c(=O)c(C(=O)NN(C)c2ccccc2)cc2cccnc21	-24	-13
30	NCCSc1nc2ccccc2[nH]1	4	3
31	CCC(CC)C(=O)N(C)c1c(C)nc2c(OCCOC)cccn12	-3	8
32	O=C(CCCCCNC(=O)OCc1ccccc1)NCCCOc1cccc([N+](=O)[O-])c1	17	27
33	CCCCC1CCCN1Cc1ccccc1C(=O)O (stereo not drawn)	0	1
34	O=C1NC(=S)N(c2cccc3ccccc23)C(=O)/C1=C/c1cn(Cc2ccccc2)c2ccccc12	-5	-1
35	CCc1oc2ccccc2c1CN1C[C@@H](N)C[C@H]1C(=O)N(CC)CC	2	10
36	C=C(C)[C@H]1CC=C(C)C(=O)[C@]1(C#N)CCC(C)=O	2	2
37	COc1ccccc1Cn1c(C(=O)NCCc2ccc(OC)c(OC)c2)cc2ccsc21	27	31
38	CN1C(c2ccccc2)CC(=NO)CC1c1ccccc1 (stereo not drawn)	39	-1
39	C=C1C(n2cnc3c(=O)[nH]c(N)nc32)C[C@H](O)[C@H]1CO (stereo partly drawn)	-10	-9
40	Cc1ccc(C(=O)N(CC2CCN(Cc3ccccc3F)CC2)CC2CCCO2)cn1 (stereo not drawn)	-7	1
41	CCCN(Cc1cc(N)ccc1N(C)C)S(=O)(=O)c1cccc(Cl)c1	-4	-1
42	Cc1ccc(C)c(C(O)C(F)(F)F)c1 (stereo not drawn)	5	6
43	COc1cccc(CO[C@]2(C(=O)NC3CC3)CC(OCc3c(F)cccc3F)[C@@H]3OC(C)(C)O[C@@H]3C2)c1 (stereo partly drawn)	3	9
44	Cc1cccc(NC(=O)C(=O)NCCc2nc(C(C)C)no2)c1C	-1	-1
45	CC1CCc2c(C(=O)Nc3ccc4c(c3)OCCO4)csc2C1 (stereo not drawn)	-1	-1
46	CC1=CC[C@@H]2CN(C(=O)Cc3c[nH]c4ccccc34)C[C@@H]2C1	4	6
47	CCc1ccccc1Nc1nnc(SCC(=O)NC(C)C)s1	-3	-1
48	O=[N+]([O-])c1cc2c(c(COc3ccc(Cl)cc3)c1)OCOC2	5	5
49	COc1ccccc1Nc1ccc2nnnn2n1	-3	-2
50	CC[C@H](NC(=O)c1cccc(NCC(=O)O)c1)c1ccccc1	-2	13
51	COc1ccc(C2CC(=O)C3=C(C2)N=C(C)C(C#N)C3c2ccc(OCc3ccccc3)cc2)cc1 (stereo not drawn)	16	11
52	CC(C)c1cc(C(C)C)n(C2CCN(C(=O)C3=NNC(=O)CC3)CC2)n1	13	6
53	O=C(Nc1ccc(F)c(S(=O)(=O)NC2CC2)c1)c1cccs1	-8	-1
54	Cc1ccccc1NC(=O)CC(=O)N1CCCC1Cn1cccn1 (stereo not drawn)	13	15
55	CCOC(=O)c1cc(-c2cccc(NC(=O)C(OC(C)=O)c3ccccc3)c2)n(-c2ccccc2F)n1 (stereo not drawn)	11	18
56	N#Cc1cccc(NC(=O)Cn2cc(Cl)cn2)c1	-3	0
57	CCCCCc1ccc(S(=O)(=O)N2CCC(c3c[nH]c4ccc(OC)cc34)CC2)cc1	4	10
58	CCc1nc(C(=O)O)nn1-c1c(Cl)cccc1Cl	-8	-5
59	CN(C(=S)Nc1ccc2c(c1)OCCO2)C1CCc2ccccc21 (stereo not drawn)	7	-1
60	Cc1nc(-c2cccc(F)c2)nc(N2CCN(C(=O)c3ccccc3F)CC2)c1C	8	4
61	NCCc1n[nH]c(=O)n1CCc1ccccc1	3	3
62	Cc1cc(-c2nn3c(C)nnc3s2)ccc1N	18	22
63	CCOC(=O)CCNC(=O)C(C)SCc1ccccc1 (stereo not drawn)	5	6
64	CCCNC(=O)c1cc(NC(=O)Nc2ccccc2)ccc1N1CCCC1	10	7
65	CCOC(=O)c1c(C)c(NC(C)=O)c(C)n1C(C)=O	4	11
66	CC1CCCC(C)N1CC#N (stereo not drawn)	-7	-1
67	COc1ccc(N2C(=O)C3N=NN(Cc4ccc(C)cc4)C3C2=O)cc1 (stereo not drawn)	-4	1
68	Cc1cc(Nc2ccc(Cl)cc2)n(-c2cccc(Cl)c2)n1	0	1
69	CCOC(=O)C1=C(C)N=C2SCC(=O)N2C1c1ccc(N(C)C)cc1 (stereo not drawn)	-9	-7
70	Cc1nccn1CCC(NC(=O)c1cn(-c2ccccc2)nn1)c1ccccc1 (stereo not drawn)	-8	-1
71	O=C1CSc2ccccc2N1CCC(=O)N1CCOC2CCCC21 (stereo not drawn)	0	0
72	O=c1c(C2OCC(COc3ccc(Cl)cc3)O2)coc2ccccc12 (stereo not drawn)	-7	-7
73	COc1ccc(CCN(C)C(=O)c2cc(C)n(C)n2)cc1OC	-3	-4
74	CCCCCC1CCC(c2ccc(-c3noc(-c4ccc(Br)cc4)n3)cc2)CC1 (stereo not drawn)	-14	-8
75	COc1cc(=O)n(-c2ccccc2)nc1C(=O)Nc1ccccc1O	1	0

Continuation.
nr	molecule	NPYLR7 ag max-min	NPYLR7 ag
76	CC(C)(C)c1cc(C(C)(C)C)nc(N)n1	4	6
77	COc1ccc(C(=O)N2CCN(c3ccc(C)c(F)c3)C(=O)C2C)cc1 (stereo not drawn)	24	21
78	CCc1nc2ccc(C(=O)Nc3ccc(Cl)c(Cl)c3)cn2c1N(CC)CCOC	-11	-5
79	O=C(NC(c1ccc(F)cc1)c1ccc2ccccc2n1)C1CCN(Cc2nccs2)CC1 (stereo not drawn)	-7	-1
80	O=C(O)C1CC(=O)N(c2cccc(N3CCOC3=O)c2)C1 (stereo not drawn)	2	5
81	O=C(COc1ccccc1)NN=Cc1ccc(Br)cc1	-2	3
82	COCCCNC(=O)C(=O)NCC(c1ccco1)N1CCc2ccccc21 (stereo not drawn)	-1	0
83	O=C(O)c1occc1CSc1ccccc1	-6	-3
84	COc1ccc(CCOC(=O)C2CCCCN2C(=O)C2=Cc3cc(Cl)ccc3OC2)cc1OC (stereo not drawn)	-12	-5
85	O=C(CN1C(=O)COc2ccccc21)Nc1ccc(S(=O)(=O)C(F)F)cc1	0	3
86	Cn1nnnc1-c1cccc(NC(=O)c2ccco2)c1	13	1
87	COCc1nc(C)c(CNC(=O)c2c(C)nc3sccn23)s1	5	8
88	O=C(c1ccccc1Cl)N1CCN(c2nccc(-c3ccc(Oc4ccccc4)cc3)n2)CC1	32	27
89	Cc1ccc(N2CCN(C(=O)c3ncc[nH]3)C(C)C2)cc1 (stereo not drawn)	4	7
90	CN(C)S(=O)(=O)c1ccc(C(=O)Nn2cnc3c(cnn3C(C)(C)C)c2=O)cc1	1	3
91	COc1ccc2[nH]c3c(c2c1)CCN(C(=O)COCc1ccccc1)C3c1ccc(OCCCN(C)C)cc1 (stereo not drawn)	-8	-6
92	COc1ccc2[nH]c(C(=O)N[C@@H](CCc3ccccc3)C(=O)NCC#N)cc2c1	3	10
93	COCCNCc1cc(Cl)ccc1OCc1nc(CO)cs1	26	23
94	CCN(CC)CC(=O)N1N=C(c2cccc(OC)c2)CC1c1ccc(F)cc1 (stereo not drawn)	5	0
95	O=C(CSCc1ccc(F)cc1)N(c1ccccc1)C1CCS(=O)(=O)C1 (stereo not drawn)	5	7
96	CCC(CC)C(=O)C(C#N)C(=O)Nc1ccc(F)cc1 (stereo not drawn)	16	13
97	C[C@@H](C(=O)Nc1nc2ccccc2[nH]1)N1C(=O)c2ccncc2C1=O	45	2
98	CC(=O)c1c[nH]c(C(=O)NC2CCN(C(=O)OC(C)(C)C)C2)c1 (stereo not drawn)	-6	-7
99	Cc1nc(Oc2cccc(Cl)c2)c2oc3ccccc3c2n1	-6	-8
100	COCC(=O)Nc1ccc(N(C)C)c(CN(CC2CCCO2)C(=O)c2ccc(OC)cc2)c1 (stereo not drawn)	12	4

Looked up by compound from the entries so far:
nr	molecule	NPYLR7 ag max-min	NPYLR7 ag
93	COCCNCc1cc(Cl)ccc1OCc1nc(CO)cs1	26	23
88	O=C(c1ccccc1Cl)N1CCN(c2nccc(-c3ccc(Oc4ccccc4)cc3)n2)CC1	32	27
86	Cn1nnnc1-c1cccc(NC(=O)c2ccco2)c1	13	1
100	COCC(=O)Nc1ccc(N(C)C)c(CN(CC2CCCO2)C(=O)c2ccc(OC)cc2)c1 (stereo not drawn)	12	4

Next section.
nr	molecule	NPYLR7 ag max-min	NPYLR7 ag
101	Cc1ccc(CN2CCc3c(c(C(=O)NCc4ccccc4)nn3C)C2)o1	-2	7
102	Cc1c(C(=O)NCCSCc2ccco2)cnc2c(-c3cccc(C(F)(F)F)c3)cnn12	6	20
103	O=C(CSc1nc2c([nH]c3ccccc32)c(=O)n1-c1ccccc1)NCC1CCCO1 (stereo not drawn)	7	1
104	COc1ccc2c(c1)C1(SCCN1C(=O)c1ccccc1C)C(=O)N2Cc1ccc(F)c(F)c1 (stereo not drawn)	3	-3
105	CCC(C)NC(=S)Nc1cc(C)cc(C)c1 (stereo not drawn)	-18	-13
106	CCn1cncc1CNC(=O)c1csc2nc(-c3cccc(OC)c3)cn12	16	33
107	CCOC(=O)C(C#N)=Cc1cc(Br)ccc1OC	2	-1
108	COC(=O)c1ccc(S(=O)(=O)NCc2cccc(OC)c2)cc1	-1	5
109	COc1ccc(Cl)cc1S(=O)(=O)N1CCN=C1C	1	5
110	CCCCn1c(N)c(N(CCC(C)C)C(=O)C2CCCC2)c(=O)[nH]c1=O	10	-4
111	CCNC(=O)Nc1ccc(N(C)C)c(CN(C(=O)c2cccs2)C(C)C(C)C)c1 (stereo not drawn)	2	0
112	O=C(c1ccc(F)cc1)N1CCSC1c1cccc(F)c1 (stereo not drawn)	27	21
113	O=C(O)c1cc(NS(=O)(=O)c2cncc(F)c2)cc(C(F)(F)F)c1	-4	-4
114	CCN(CC)C(=O)Cn1cc(SCc2cccc(C)c2)c2ccccc21	-7	-3
115	COc1ccc(C(=O)N(CC(=O)Nc2nc(CC(=O)N3CCN(c4ccccc4C)CC3)cs2)CC(C)C)cc1	28	23
116	CCCCCNC(=O)c1cc(-c2ccccc2F)nc2cc(C(C)(C)C)nn12	-1	-6
117	CC1(C)CC(NC(=O)c2ccc(Oc3ccccc3)cc2)CC(C)(C)N1	9	10

Complete entries as entered above:
`O=C(c1ccc(F)cc1)N1CCSC1c1cccc(F)c1` (stereo not drawn) is listed with NPYLR7 ag max-min = 27; NPYLR7 ag = 21
`CCCCCNC(=O)c1cc(-c2ccccc2F)nc2cc(C(C)(C)C)nn12` is listed with NPYLR7 ag max-min = -1; NPYLR7 ag = -6

High-throughput results as filed in PubChem.

This is a subset; count on the stated rates, not on these rows.
